Screening data as filed in PubChem BioAssay.
HTT promoter inh: HTT promoter inhibition; HEK293 HTT promoter firefly luciferase reporter (activity 0% = vehicle and -100% = no light), 24 h; Potency, µM (series often up to 57.5 µM), without a hit: top-dose activity change, negative = inhibition, hits mostly inhibitors; actives 0.93% (n = 48,000); active = well fitted inhibition curve with a large enough effect; inconclusive = small, poorly fitted or top-dose-only effect; inactive = no such curve, though single readings can be large or run the other way; also: nearly all actives have a fitted effect of over 50% in size
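Firefly luciferase signal from promoter-reporter HEK293 cells was scaled between vehicle (0%) and zero RLU (-100%). Compounds were tested at final concentrations of up to 57.5 uM over 24 h at 37 degrees C. PTC124 at 50 uM final served as control inhibitor.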
PMP22 txn: PMP22 gene transcription modulation; actives 2% (n = 43,000); Potency, µM (doses to about 57.5 µM), inactives show at the highest dose activity change, negative = inhibition, hits mostly inhibitors; AID 1508649; S16 Pmp22-F2sN Schwann cells (luciferase reporters placed in the Pmp22 gene), FLuc/NLuc coincidence luminescence, 24 h; active = clear falling dose curves in both reporters; inconclusive = both reporters move, but less clearly or upward; inactive = either reporter flat; the % is the NLuc reporter signal; also: % is scaled to controls: 0 for no effect and ±100 for the full control effect; some results filed as inactive show a strong effect at the top dose
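S16 Schwann cells carrying FLuc/NLuc coincidence reporter in the Pmp22 3' UTR treated with compound 24 h at 37C; FLuc then NLuc luminescence read sequentially by dual-luciferase reagents.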
Active calls of the source: *; ? = inconclusive; · = no result given; & = joins results of further samples; [ ] = another dose, or the depositor's remark. Potency is read from the fitted curve at half-maximal effect. Random draw from the library; about 2.4% have a hit in one of these screens.

compound | HTT promoter inh | PMP22 txn
CCCCn1c(SCC(=O)NCc2ccc(C)cc2)nc2c(sc3ccccc32)c1=O | -6.2% | 2.3%
O=C(NCCC1=CCCCC1)c1ccc2c(c1)ncn2-c1ccc(F)c(F)c1 | 14.3% | -4.0%
O=C(Cn1cc(S(=O)(=O)N2CCN(c3ccccc3F)CC2)c2ccccc2c1=O)Nc1cccc(C(F)(F)F)c1 | ? | 8.5%
CCOC(=O)c1[nH]c(C)c(CCC(=O)Nc2ccc(N(CC)CC)cc2C)c1C | -11.4% | -23.4%
CC1CCN(CCCNC(=O)CN2C(=O)CSc3ccc(S(=O)(=O)N4CCCCC4)cc32)CC1 | -0.4% | -33.0%
Cc1ccc(-c2c(C(=O)N3CCN(c4cc(Cl)ccc4C)CC3)oc(=O)c3ccccc23)cc1 | -8.7% | ?
O=C(CCn1cnc2onc(-c3ccc(F)cc3)c2c1=O)N1CCN(c2ccccc2)CC1 | -11.2% | -28.1%
CCOc1ccc(C(=O)Nc2ccc3nc(SCC(=O)N4CCCC4)sc3c2)cc1 | 8.6% | 19.5%
CCC1CN(S(=O)(=O)c2cc(-c3cc(C)no3)ccc2C)c2cc(C)ccc2O1 (stereo not drawn) | -13.3% | ?
COc1ccc(NC(=O)C2CCCN(C(=O)c3cnn(-c4ccc(F)cc4)c3-n3cccc3)C2)cc1 (stereo not drawn) | -23.8% | 23.2%
Cc1ccc(-c2c(CN3CCN(c4cccc(C)c4C)CC3)csc2C)cc1 | -17.4% | -29.6%
CCOc1ccc(CC(=O)NCCS(=O)(=O)N2CCN(c3ccc(OC)cc3)CC2)cc1 | -29.8% | -0.1%
COc1ccc(NC(=O)Cn2c(=O)n(CCCC(=O)NCc3ccccc3OC)c(=O)c3ccccc32)cc1Cl | -26.6% | ?
COc1cc(NC(=O)N2CCC(CN3CCCCCC3)CC2)cc(OC)c1OC | -14.4% | 5.1%
COCCCNC(=O)CC(c1cc(OC)c(OC)c(OC)c1)N1Cc2ccccc2C1=O (stereo not drawn) | -3.3% | -14.2%
O=C(NCc1cccc(F)c1)C1CCN(C(=O)c2sccc2-n2cccc2)CC1 | -14.7% | -0.3%
Cc1ccccc1-c1nc(C(N)=O)c2c(n1)n(-c1ccc3c(c1)OCO3)c(=O)n2C | -19.7% | -31.5%
O=C(C1CCCN(S(=O)(=O)c2cccc3nonc23)C1)N1CCN(c2cccc(Cl)c2)CC1 (stereo not drawn) | -7.5% | ?
Cc1ccc(Cl)cc1N1CCN(C(=O)CCS(=O)(=O)c2ccc3c(c2)oc(=O)n3C)CC1 | ? | -25.6%
Cc1ccccc1CCNC(=O)c1ccc2c(c1)c(C)c(C)n2Cc1ccccc1 | ? | ?
Cc1cccc(CCNC(=O)CCc2c(C)nc3c4c(C)cc(C)nc4nn3c2C)c1 | -13.5% | -13.4%
COc1cccc(-c2nnc(SCC(=O)NC3CCCCC3)o2)c1 | -18.9% | ?
CCc1ccccc1Nc1ncnc2c1cnn2-c1ccc(C)cc1C | -2.4% | 7.5%
CCOCCc1nn2c(=O)cc(COC(=O)c3ccco3)nc2s1 | -6.6% | -17.6%
CC(C(=O)Nc1ccc(F)c(Cl)c1)N1Cc2ccccc2C1=O (stereo not drawn) | ? | -24.9%
CCn1c(=O)cc(SCC(=O)NCCc2ccc(Cl)cc2)c2ccccc21 | -17.0% | -9.1%
COc1ccc(NC(=O)Cn2cc(S(=O)(=O)N3CCN(c4ccccc4F)CC3)c3ccccc3c2=O)cc1Cl | -19.5% | -12.5%
Cc1ccc(C)c(CN2C(=O)c3ccccc3S(=O)c3ccc(C(=O)N4CCN(c5cccc(Cl)c5)CC4)cc32)c1 (stereo not drawn) | ? | ?
COc1ccc(NC(=O)NCCc2c(C)nn(C)c2C)c(OC)c1 | -0.6% | 12.5%
COCCNC(=O)Cn1c(-c2cccs2)cc2cc(Cl)ccc21 | ? | 18.4%
CCc1ccc(NC(=O)COC(=O)CCCC2=NS(=O)(=O)c3ccccc3N2)cc1 | 0.3% | -6.5%
COc1cc(C(=O)NCC(c2cccs2)S(=O)(=O)c2ccc(F)cc2)cc(OC)c1OC (stereo not drawn) | -21.3% | -2.1%
CCc1ccccc1NC(=O)N1CCC(CN2CCc3ccccc3C2)CC1 | -20.8% | -12.8%
COc1cccc(NC(=O)Cn2nc3c4ccccc4n(Cc4cccc(F)c4)cc-3c2=O)c1 | -18.8% | -41.7%
Cc1ccc(-c2cc(C(=O)NCc3ccccc3Cl)c3ccccc3n2)cc1C | -6.9% | ?
CCOc1ccccc1NC(=O)c1c(NCc2cccs2)sc2c1CCC(C)C2 (stereo not drawn) | ? | ?
CCCc1nnc(N2C(=O)c3oc4ccc(F)cc4c(=O)c3C2c2ccc(C(=O)OC)cc2)s1 (stereo not drawn) | 4.7% | 3.1%
CCCN(CCC)C(=O)Cn1c(SCc2cccc(C(F)(F)F)c2)nc2cccnc21 | -24.4% | ?
CCOc1ccc(C(=O)Nc2cc(NC(=O)c3ccco3)ccc2OC)cc1Br | -13.9% | ?
CCC(Sc1nc2ccccc2c2nc(CCc3c(C)n[nH]c3C)nn12)C(=O)Nc1ccccc1F (stereo not drawn) | -24.6% | ?
COc1ccccc1NC(=O)Cn1c(=O)n(CCc2ccccc2)c(=O)c2sc3ccccc3c21 | 6.6% | ?
CCS(=O)(=O)CCSc1nc(-c2ccc(Br)cc2)cc(-c2ccccc2)c1C#N | -4.9% | -23.4%
CC(C(=O)NCc1ccc(Cl)cc1)n1ccc2cc(S(=O)(=O)N3CCCCCC3)ccc21 (stereo not drawn) | ? | ?
CCOC(=O)c1cc(-c2ccc(F)cc2)n(CCC(=O)Nc2ccccc2OC)c1C | ? | -2.4%
COc1cc(NC(=O)Cn2c(=O)n(CC3CCC(C(=O)NCCc4ccccc4)CC3)c(=O)c3ccccc32)cc(OC)c1 (stereo not drawn) | -9.0% | -70.3%
CC(C)Sc1ncc(Cl)c(C(=O)Nc2ccc(S(=O)(=O)Nc3ncccn3)cc2)n1 | -25.6% | 12.7%
CCC1CN(C(=O)N2CCC(C(=O)NCCc3ccccc3Cl)CC2)c2cc(C)ccc2O1 (stereo not drawn) | ? | ?
CCc1cccc(C)c1Nc1c(-c2ccsc2)nc2ncccn12 | -29.6% | -5.9%
CCOC(=O)c1ccc(NC(=O)c2csc3c2CCCC3)cc1 | 27.7% | 4.7%
O=C(NCc1ccc(F)cc1)c1ccc2c(c1)nc1n2CCCCC1 | 29.1% | -18.3%
CCCSc1nc2sc3c(c2c(=O)n1Cc1ccccc1)CC(C)(CC)OC3 (stereo not drawn) | -8.9% | 3.4%
CCCOc1cccc(C(=O)Nc2ccc(-c3nc4ccccc4s3)c(Cl)c2)c1 | 5.1% | -2.1%
COc1ccc(C2C(C(=O)Nc3ccccc3)=C(C)Nc3nc(-c4ccccc4Cl)nn32)cc1OC (stereo not drawn) | -15.4% | -72.9%
Cc1ccc(C)c(CN2C(=O)CSc3ccc(C(=O)NCc4ccc(F)cc4)cc32)c1 | -11.9% | ?
O=C(CC1N=C2c3ccccc3N=C(SCc3ccccc3Cl)N2C1=O)NCCc1ccccc1 (stereo not drawn) | -31.0% | ?
Cc1cc(NS(=O)(=O)c2ccc3nc(-c4ccccc4)[nH]c3c2)ccc1Br | ? | ?
COC(=O)c1cc2sc(C)cc2n1Cc1ccc(F)cc1Cl | -12.7% | -3.7%
Cc1cccc(N2CCN(C(=O)c3ccc4c(Cl)c5c(nc4c3)CCCC5)CC2)c1C | -24.6% | ?
CCc1ccc(NC(=O)CSc2nc3c([nH]c4ccccc43)c(=O)n2-c2cccc(OC)c2)cc1 | -27.9% | -1.3%
COc1ccc(NC(=O)c2ccco2)cc1NC(=O)COc1ccc(C)c(C)c1 | -38.4% | -41.5%

(continued)
compound | HTT promoter inh | PMP22 txn
Cc1ccccc1Cn1c(=O)n(CCc2ccccc2)c(=O)c2ccccc21 | ? | -2.9%
Cc1c(Cl)cccc1NC(=O)Cn1c(=O)n(Cc2ccco2)c(=O)c2sc3ccccc3c21 | -4.8% | 12.7µM*
CCOC(=O)CNc1nc2ccccc2n2c(C)nnc12 | 11.8% | -7.6%
CC(C)(C)c1ccc(C(=O)NCCc2csc(-c3ccc(Cl)cc3)n2)cc1 | ? | ?
COC(=O)c1ccc(OCC2c3cc(OC)c(OC)cc3CCN2C(=O)c2ccc(F)cc2)cc1 (stereo not drawn) | -28.6% | ?
Cc1cc(Br)ccc1NC(=O)C1CCCN(S(=O)(=O)c2cccc3nonc23)C1 (stereo not drawn) | -29.2% | ?
COc1ccc(-c2cnc(C)o2)cc1S(=O)(=O)Nc1ccc(F)cc1F | -10.1% | ?
COc1ccc(NC(=O)CN2C(=O)COc3ccc(S(=O)(=O)N4CCOCC4)cc32)cc1 | -7.3% | 8.5%
COc1ccc(-c2nn3c(-c4ccccc4)nnc3c3ccccc23)cc1 | -4.7% | ?
COc1cccc(CNC(=O)Cn2c(=O)cc(C(F)(F)F)c3c(C)nn(C)c32)c1OC | -0.7% | -3.9%
Cc1ccc(NC(=O)Cn2c(=O)n(CCCCC(=O)NCCc3ccccc3)c(=O)c3ccccc32)c(C)c1 | -7.6% | -23.5%
O=C1CCc2cc(S(=O)(=O)NCc3ccccc3)cc3c2N1CC3 | -16.9% | -10.3%
CN(C(=O)NCc1noc2ccccc12)c1cccc(Cl)c1 | -16.2% | -3.5%
Cc1cc(C)c2c(CC(=O)N(Cc3ccc(N(C)C)cc3)Cc3ccco3)coc2c1 | ? | ?
COc1cccc(-n2c(=O)c3c4c(sc3n(Cc3ccc(C)cc3)c2=O)CCCC4)c1 | 11.3% | 0.0%
O=C(Cn1cc(SCc2ccccc2)c2ccccc21)N1CCCCC1 | -3.6% | ?
Cc1c(C(=O)OC2CCCCCC2)[nH]c2c1C(=O)CC(c1ccc(Cl)cc1)C2 (stereo not drawn) | 6.0% | 1.7%
COc1cccc(CNC(=O)C2CCN(Cc3cc4ccccc4n3Cc3ccc(C)cc3)CC2)c1 | -9.3% | ?
O=C(COc1ccc(Cl)cc1)Nc1nnc2n1CCS2 | -2.3% | -12.2%
Cc1ccc(CNC(=O)Cn2cc(S(=O)(=O)Cc3ccccc3F)c3ccccc32)cc1 | -17.7% | -14.6%
COc1ccc(C2=CC(c3ccccc3F)n3ncc(C(=O)Nc4ccc(C)cc4)c3N2)cc1 (stereo not drawn) | -0.1% | ?
O=C1CS(=O)(=O)C2(C(=O)N(Cc3ccccc3Cl)c3ccccc32)N1c1ccc(F)cc1 (stereo not drawn) | ? | ?
Cc1cccc(N2CCN(C(=O)c3cc4ccc5cccnc5c4[nH]3)CC2)c1C | -19.6% | -15.6%
Cc1ccc(C)c(N2CCN(C(=O)c3ccc(NC(=O)c4nsc5ccccc45)cc3)CC2)c1 | -24.5% | 0.6%
Cc1ccc(CNC(=O)c2nn(-c3ccc(Cl)cc3)nc2CO)cc1 | -22.2% | ?
Cc1cccc(C)c1NC(=O)Cn1nnc(C(=O)NCc2ccc(F)cc2)c1N | -5.0% | -13.8%
CCOc1ccc(C2CC(=O)Nc3cc4c(cc32)OCO4)cc1OC (stereo not drawn) | -31.4% | ?
COc1cccc(NC(=O)Nc2cc(-c3cn4cccnc4n3)ccc2OC)c1 | 50.7%[activator] | ?
CN1C(=O)C2(c3ccccc31)N(c1cccc(F)c1)C(=O)CS2(=O)=O (stereo not drawn) | 19.8% | -9.0%
COc1cc2nc(N3CCN(C(=O)C4CCCO4)CC3)nc(N)c2cc1OC (stereo not drawn) | 17.3%&2.7% | ·
Cc1ccc(S(=O)(=O)n2nc(-c3ccccc3)nc2NCc2ccccc2Cl)cc1 | -17.7% | -11.0%
COc1ccc(NC(=O)Cn2nnc(-c3nc(-c4ccncc4)no3)c2N)cc1OC | 3.0% | -8.2%
COc1cccc(-c2nnc3n(CCc4ccccc4)c(=O)c4ccccc4n23)c1O | ? | ?
CN(Cc1ccccc1)C(=O)c1c[nH]c2ccc(S(=O)(=O)Nc3ccccc3F)cc2c1=O | 12.0% | 4.8%
Cc1c(NC(=O)c2cc(-c3ccc(Br)cc3)on2)c(=O)n(-c2ccccc2)n1C | -20.9% | 3.5%
CCCCOc1ccc(S(=O)(=O)NCc2csc(-c3ccc(OC)cc3)n2)cc1 | -28.5% | ?
Cc1cccc(NC(=O)C2CCC(CNS(=O)(=O)c3ccc4c(c3)CCCC(=O)N4)CC2)c1C (stereo not drawn) | -30.1% | ?

Profiles as entered above:
Profile of `Cc1cccc(C)c1NC(=O)Cn1nnc(C(=O)NCc2ccc(F)cc2)c1N` → HTT promoter inh = -5.0%; PMP22 txn = -13.8%
Profile of `Cc1ccc(CNC(=O)c2nn(-c3ccc(Cl)cc3)nc2CO)cc1` → HTT promoter inh = -22.2%; PMP22 txn = ?
